Screening results: PubChem, National Center for Advancing Translational Sciences (NCATS)
Vaccinia mCherry = inhibitors of vaccinia virus infection (mCherry reporter signal). Vaccinia virus mCherry reporter infection, fluorescence; about a quarter of the inactives have no number. Potency, µM (series often up to 36.5 µM), for the others: top-dose activity change, negative = inhibition, hits mostly inhibitors. actives 0.63% (n = 310,000). AID 720579; active = well fitted inhibition curve with a large enough effect; inconclusive = small, poorly fitted or top-dose-only effect; inactive = no such curve, though single readings can be large or run the other way; tested in A549 cells; further: nearly all actives have a fitted effect of over 35% in size; inactives centre near -10
Vaccinia Venus = vaccinia inhibition (Venus reporter); actives 0.46% (n = 330,000); Potency, µM (highest dose often 36.5 µM), for the others: at the top dose activity change, negative = inhibition, actives largely listed as inhibitors; AID 720580; Vaccinia virus Venus reporter expression, fluorescence; active means well fitted inhibition curve with a large enough effect; inconclusive means small, poorly fitted or top-dose-only effect; inactive means no such curve, though single readings can be large or run the other way; tested in A549 cells; further: nearly all actives have a fitted effect of over 30% in size; inactives centre near -10
Active calls of the source: *; i = inactive; ? = inconclusive; · = no result given; & = joins results of further samples; [ ] = dose if it differs, or a comment. On the % scale 0 is the no-effect control and ±100 the full control effect; potency means the concentration at half of the fitted maximal effect. Rows are unselected. Share with any hit: about 0.87%.

SMILES | Vaccinia mCherry | Vaccinia Venus
COC(=O)N/N=C(\C)c1cccc(C(F)(F)F)c1 | i | -3%
CCO[C@H]1OC(C(=O)NC2CC2)=C[C@@H](c2coc3ccccc3c2=O)[C@@H]1CCCO | 1% | -6%
O=C(Nc1ccc(Oc2ccc(Cl)cc2)cc1)c1ncn[nH]1 | 8% | 19%
CC(C)NC(=O)NC(=O)COC(=O)CCCSc1nc2ccccc2s1 | i | -2%
CCc1cccc(NC(=O)c2cc(OC)c(OC)c(OC)c2)c1 | -9% | -14%
COc1ccc(C2c3c(ccc4ccccc34)Oc3ncn4nc(Cc5ccccc5)nc4c32)cc1OC (stereo unspecified) | -13% | -3%
COC(=O)CCN1CCC2CC1c1cc(Cl)ccc12 (stereo unspecified) | i | -2%
Cc1cc(C(=O)NCc2ccccc2Cl)c2c(C)nn(-c3ccccc3)c2n1 | -4% | -5%
O=c1[nH]c(=S)[nH]c2c1C(c1ccc(F)cc1)OC(CCc1ccccc1)C2 (stereo unspecified) | i | 2%
Oc1c(C(Nc2nccs2)c2ccc(C(F)(F)F)cc2)ccc2cccnc12 (stereo unspecified) | 7.1µM* | ?
Cc1ccc(NC(=O)c2cc(-c3cc(Cl)ccc3C)n[nH]2)cc1NS(C)(=O)=O | -2% | -21%
COc1ccc(-c2oc3cccnc3c2C#CCO)cc1 | ? | -18%
COc1cccc(C(=O)Nc2c(C(=O)Nc3ccc(F)cc3)oc3ccccc23)c1OC | -6% | -15%
O=C(O)Cn1nncc1-c1ccc(C(F)(F)F)cc1 | i | -1%
C=CCSC1=C(C#N)C(c2ccc(OCC)cc2)CC(=O)N1 (stereo unspecified) | i | -24%
Cc1ccc(OC(=O)C2CSC3(C)CCC(=O)N23)c(Br)c1 (stereo unspecified) | -15% | -16%
Cc1onc(-c2ccccc2)c1C(=O)Nc1ccc2c(c1)OCO2 | -4% | -3%
Clc1ccccc1-c1cc2nc(NCc3ccco3)ccn2n1 | -4% | -8%
CCOc1ccc(-c2nc(N)ncc2Oc2cccc(OC)c2)c(O)c1 | -9%[1.46 µM] | ?
COc1ccc(-c2cc(NC=O)c3ncc(-c4cc(OC)c(OC)c(OC)c4)n3c2)cc1 | ? | ?
CCCOc1ccc(C(=O)NNC(=S)NC(=O)c2cc(-c3ccccc3)nc3ccccc23)cc1 | -25% | -27%
N#CC(C#N)=NNc1ccc(S(=O)(=O)N2CCCC2)cc1 | i | -11%
CN(C(=O)COC(=O)CN1C(=O)c2ccccc2C1=O)c1c(N)n(Cc2ccccc2)c(=O)[nH]c1=O | -14% | -2%
Cc1cccc(C)c1NC(=O)C(=O)NCC1CCCN1S(=O)(=O)c1ccccc1 (stereo unspecified) | ? | -9%
Cc1cc(N2CCCC2)nc(SCC(=O)c2ccccc2)n1 | · | -18%
NC(=O)C(=O)N/N=C/c1c[nH]c2ccc(Br)cc12 | -8% | -27%
COc1ccc(C(c2nnnn2CC2CCCO2)N2CCN(c3cccc(C)c3C)CC2)cc1 (stereo unspecified) | · | -20%
CC(=O)c1ccc(N2CCN(C(=O)CCn3cnc4onc(-c5ccc(F)cc5)c4c3=O)CC2)cc1 | -18% | -8%
CCC(NC(=O)c1cc(COc2ccc(OC)cc2Cl)on1)c1ccncc1 (stereo unspecified) | -7% | -18%
O=C(Cc1ccccc1)N/N=C/c1cc(Br)cc(Br)c1O | ? | -22%

16 successive compounds out of the list so far, quoted:
SMILES | Vaccinia mCherry | Vaccinia Venus
COc1cccc(C(=O)Nc2c(C(=O)Nc3ccc(F)cc3)oc3ccccc23)c1OC | -6% | -15%
O=C(O)Cn1nncc1-c1ccc(C(F)(F)F)cc1 | i | -1%
C=CCSC1=C(C#N)C(c2ccc(OCC)cc2)CC(=O)N1 (stereo unspecified) | i | -24%
Cc1ccc(OC(=O)C2CSC3(C)CCC(=O)N23)c(Br)c1 (stereo unspecified) | -15% | -16%
Cc1onc(-c2ccccc2)c1C(=O)Nc1ccc2c(c1)OCO2 | -4% | -3%
Clc1ccccc1-c1cc2nc(NCc3ccco3)ccn2n1 | -4% | -8%
CCOc1ccc(-c2nc(N)ncc2Oc2cccc(OC)c2)c(O)c1 | -9%[1.46 µM] | ?
COc1ccc(-c2cc(NC=O)c3ncc(-c4cc(OC)c(OC)c(OC)c4)n3c2)cc1 | ? | ?
CCCOc1ccc(C(=O)NNC(=S)NC(=O)c2cc(-c3ccccc3)nc3ccccc23)cc1 | -25% | -27%
N#CC(C#N)=NNc1ccc(S(=O)(=O)N2CCCC2)cc1 | i | -11%
CN(C(=O)COC(=O)CN1C(=O)c2ccccc2C1=O)c1c(N)n(Cc2ccccc2)c(=O)[nH]c1=O | -14% | -2%
Cc1cccc(C)c1NC(=O)C(=O)NCC1CCCN1S(=O)(=O)c1ccccc1 (stereo unspecified) | ? | -9%
Cc1cc(N2CCCC2)nc(SCC(=O)c2ccccc2)n1 | · | -18%
NC(=O)C(=O)N/N=C/c1c[nH]c2ccc(Br)cc12 | -8% | -27%
COc1ccc(C(c2nnnn2CC2CCCO2)N2CCN(c3cccc(C)c3C)CC2)cc1 (stereo unspecified) | · | -20%
CC(=O)c1ccc(N2CCN(C(=O)CCn3cnc4onc(-c5ccc(F)cc5)c4c3=O)CC2)cc1 | -18% | -8%

(listing goes on)
SMILES | Vaccinia mCherry | Vaccinia Venus
COCCCNC(=O)c1cccc(C(=O)NCCCOC)c1 | -8% | -13%
Cc1cc(C)c2c(N)c(C(=O)c3cccc(Cl)c3)sc2n1 | -14% | 1%
COc1ccc(NC(=O)COC(=O)C2CCCN2C(=O)OC(C)(C)C)cc1Cl (stereo unspecified) | i | -8%
Cc1cc(C)nc(SCc2ccc(C(=O)O)o2)n1 | 2% | 7%
Cc1ccc(SCCN2CCC(C)CCC2=O)cc1 (stereo unspecified) | ? | -8%&-17%
CCOc1ccc(NC(=O)N(C2CCCCC2)C2CCN(C(C)=O)CC2)cc1 | i | -5%
O=C(COc1ccccc1Cl)Nc1nc(-c2ccncc2)cs1 | -21% | -11%
c1coc(CNc2ncnc3nc[nH]c23)c1 | -5%&-3%&-6% | -15%&-23%&-18%
CCOc1c(Nc2ccccc2O)c(=O)c1=O | -2% | -18%
O=C(CSc1nccc(=O)[nH]1)N1c2ccccc2CCc2ccccc21 | -2% | -10%
Cc1cc(C)c2cc(C#N)c(NCCNC(=O)c3ccccn3)nc2c1 | -23% | -27%
C/C(Cl)=C/Cn1c(N2CCCC2)nc2c1c(=O)[nH]c(=O)n2C | i | -4%
CCOC(=O)CSc1nc(N(C)C)nc(N(C)C#N)n1 | · | -25%
Cc1ccc(CNC(=O)c2cn(C3CCCCC3)c(=O)c3c2c2ccccc2n3C)o1 | -23% | -13%
COc1ccc(OCc2nnc3n2N=C(c2ccccc2)C(CC(=O)O)S3)cc1 (stereo unspecified) | i | -5%
CSc1ncc2c(n1)-c1ccccc1N(Cc1ccccc1)S2(=O)=O | -17% | -15%
COc1ccc(-c2cnnn2-c2ccc(NC(=O)c3ccccc3OC)cc2)cc1 | -14% | -12%
Cc1ccc(Cl)cc1NC(=O)C(=O)NCC(c1cccnc1)N1CCc2ccccc21 (stereo unspecified) | -26% | -28%
CC(C)CCOc1ccc(Cn2c(=O)oc3ccccc32)cc1 | -5% | -10%
CCOC(=O)C1=CCN(S(=O)(=O)c2ccccc2F)C1c1cccc(Cl)c1 (stereo unspecified) | i | 0%
CCCn1c(C)cc(C(=O)COC(=O)c2c(C)nn(-c3ccccc3)c2C)c1C | · | ?
O=C(Nc1nnc([C@@H]2C[C@H](O)[C@@H](CO)O2)s1)Nc1cccc2ccccc12 | ? | -4%
CCOC(=O)c1cc(NC(=O)c2cccnc2)ccn1 | -18% | -15%
O=C(C1CCN(c2nc(-c3ccccc3)nc3c2CCC3)CC1)N1CCC(O)CC1 | ? | ?
CCOC(=O)c1c(-c2ccc(Br)cc2)csc1NC(=O)c1ccccc1F | -9% | 2%
COc1cccc(-c2cc3nc(NCc4ccccc4F)n(C)c(=O)c3s2)c1 | -10% | 0%
C=CCN(CC=C)C(=O)Nc1cc(OC)ccc1OC | i | -6%
CCSc1nnc(N(CCC#N)CCC#N)s1 | -16% | -7%
O=C(C[C@H]1C/C=C\CC[C@@H](Cc2ccc(F)cc2)C(=O)O[C@@H](c2ccccc2)CNC1=O)N[C@H](CO)Cc1ccccc1 | i | -29%
COc1ccccc1/C=N/NC(=O)CNC(=O)c1ccccc1 | -13% | 7%
COc1cc(NC(=O)CN2CCN(S(=O)(=O)c3ccc(Br)cc3)CC2)cc(OC)c1 | 9% | 3%
COc1ccc(C(O)c2ncc(-c3ccccc3F)[nH]2)cc1 (stereo unspecified) | 1% | -8%
COc1ccc2nc(N3CCN(C(=O)c4ccc5ncsc5c4)CC3)sc2c1 | -23% | 3%
Cc1nn(CC2CC2)c(=O)n1-c1ccccc1 | -5% | -1%
CN1CCN(NC(=O)c2cc(S(=O)(=O)N3CCOCC3)c(Cl)cc2Cl)CC1 | -13% | -10%
O=C(CN1CCCc2ccccc21)N/N=C/c1ccc(O)cc1O | ? | ?
COC(=O)c1c(NC(=O)Cc2coc3cc(C)ccc23)sc2c1CCC2 | -10% | -10%
C[C@H](CO)NC(=O)c1[nH]cnc1C(=O)Nc1ccc(CNC(=O)OC(C)(C)C)cc1 | -10% | 1%
CCOc1ccc(-c2ccc(SCC(=O)N3CCOCC3)nn2)cc1 | i | -8%
COc1ccc(OCC(=O)N2CCC3(CC2)CC(=O)c2ccccc2O3)cc1 | -2% | -5%
COCCN(CCOC)S(=O)(=O)c1ccc(C(=O)Nc2sc3c(c2C(N)=O)CCCC3)cc1 | ? | ?
c1nc(CCO[C@H]2CCCCO2)cc2cc3c(cc12)OCO3 | -24% | -5%
Cc1cc(/C=N/NC(=O)c2ccncc2)c(C)n1-c1cccc(C(F)(F)F)c1 | -11% | -11%
COc1ccc(-c2noc(N3CCC(C(=O)N4CCN(c5cccc(C)c5C)CC4)CC3)n2)cc1 | -12%[7.34 µM] | -22%[7.34 µM]
CCCn1ncc(/C=N/O)c1C | i | -20%
Cc1cc(=O)[nH]c(SCC(=O)/C=C2\N(C)c3ccccc3C2(C)C)n1 | 20% | 128%[activator]
Cn1ccc2c(N3CCOCC3)cc3c(c21)C1CCC3O1 (stereo unspecified) | 27% | -9%
COC(=O)COc1ccc(S(=O)(=O)NCc2ccco2)cc1Cl | -13% | -9%
CCOc1ccc(Cl)cc1-c1cc(C(=O)Nc2cc(OC)c(OC)c(OC)c2)[nH]n1 | -23% | -27%
COc1ccc(CNC(=O)Cn2ncc3c4ccccc4n(Cc4cccc(Cl)c4)c3c2=O)cc1 | -12% | -17%
Carrying on:
SMILES | Vaccinia mCherry | Vaccinia Venus
Cc1cc[n+](CC(=O)c2cc3ccccc3oc2=O)cc1 | i | 11%
O=C(Cc1c[nH]c2ccccc12)NCc1ccccc1F | i | -2%
CC1CCN(Cc2c(C(=O)N/N=C/c3ccc(OC(C)C)cc3)nnn2-c2nonc2N)CC1 | ? | ?
Cc1cnccc1CN(C)C(=O)CC1C(=O)NCCN1CC1CCCCC1 (stereo unspecified) | i | -11%
COc1ccc(C(CC(=O)N2CCC3(CC2)OCCO3)NS(=O)(=O)c2ccc(F)cc2)cc1 (stereo unspecified) | · | -11%
Cc1ccccc1NC(=O)c1c([N+](=O)[O-])c(C(C)(C)C)nn1C | -14% | -2%
O=C(CSc1nnc(NC(=O)c2c(F)cccc2F)s1)NCc1ccco1 | i | 1%
Cc1nn(-c2ccccn2)c2c1C(c1ccsc1)C1=C(CCCC1=O)N2 (stereo unspecified) | -18% | -25%
CCCn1c(=O)c2[nH]c(C3CCCC3)nc2n(CCC)c1=O | -10%&-17%&-13% | ?
CC(=O)c1cccc(NC(=O)CN2C(=O)c3ccccc3C2=O)c1 | -22% | 7%
CCCCN(C(=O)CCOc1ccc(OCC)cc1)c1c(N)n(Cc2ccccc2)c(=O)[nH]c1=O | i | -13%
Cc1ccc(NC(=O)NCCOCCn2c(=O)oc3ccccc32)cc1F | 7% | 16%
Cc1ccccc1NC(=S)NC(=O)Cc1ccc(Cl)cc1 | i | -7%
CCOC(=O)c1nc2ccccc2c(=O)n1-c1cccc(C)c1 | · | -21%
Oc1cccc(NC(=S)N=Nc2c(O)[nH]c3ccc(Br)cc23)c1 | -21% | ?
COCCNc1cc(-c2ccccc2C(F)(F)F)ncn1 | i | 0%
CCOc1ccc(NC(=O)NC23CC4CC(CC(C4)C2)C3)cc1 | i | -29%
O=C(c1ccc(Cl)cc1)C1CCCN(Cc2cccn2-c2ccccn2)C1 (stereo unspecified) | -7% | -13%
CCNC(=O)c1ccccc1NC(=O)c1cccc(S(=O)(=O)N2CCOCC2)c1 | 11% | -12%
C[C@@H]1CC[C@@]2(O[C@@H](CCO)C[C@H](O)[C@H]2O)O1 | i | -6%
CCc1ccc(CNC(=O)c2cc(-c3ccc(Br)s3)nc3ccccc23)cc1 | -23% | -2%
CCS(=O)(=O)NCC(c1ccco1)N1CCN(c2ccc(OC)cc2)CC1 (stereo unspecified) | 2% | -1%
COc1ccc(S(=O)(=O)N2CCCCC2)cc1NC(=O)Cc1cccc(C(F)(F)F)c1 | i | -20%
Cc1ccc(-c2nc3scc(CCNS(=O)(=O)c4ccc(Oc5ccccc5)cc4)n3n2)cc1 | ? | -30%
CC(OC(=O)c1nsc(Cl)c1Cl)C(=O)NC(C)(C)C (stereo unspecified) | -16% | -7%
COc1cc(CCC(=O)OCC(=O)Nc2sccc2C(N)=O)cc(OC)c1OC | -26% | -1%
COc1ccc(NC(=O)C2(C)CCN2Cc2cccc(OC)c2F)cc1OC (stereo unspecified) | i | -12%
